# Env fusion inh = HIV envelope-mediated fusion inhibition; 360,000 tested, 1.1% active; AID 651610; HeLa-JRFL Env/CEM21 cell fusion, luciferase; inhibition, % at 12.3 µM;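 active means mean replicate inhibition score of at least 50 and every replicate individually at or above 50; inconclusive means only one of the two criteria met; inactive means mean below 50 and not all replicates reaching 50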;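 further: 0% = plate neutral controls and 100% = maraviroc near 300 nM; one replicate is shown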
# PABP polyA inh = blocks human PABP binding to poly(A) RNA. fluorescence polarization. P11940. AID 2014. 290,000 tested, 1% active. inhibition, % at 35 µM;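 active means 50% or more with normal probe brightness, or confirmed in later tests; inconclusive means above 50% with abnormal brightness, or retests that disagree; inactive means below 50% or failed in later tests; about a fifth of its hits are not listed in these tables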;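 further: calls also rest on retests at 20 µM and on dose response follow-up; controls were probe without protein and protein plus probe with vehicle; some compounds called inactive have numbers as strong as hits; many hits fall short of the cut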
# Target sequence (P11940 whole entry, looked up): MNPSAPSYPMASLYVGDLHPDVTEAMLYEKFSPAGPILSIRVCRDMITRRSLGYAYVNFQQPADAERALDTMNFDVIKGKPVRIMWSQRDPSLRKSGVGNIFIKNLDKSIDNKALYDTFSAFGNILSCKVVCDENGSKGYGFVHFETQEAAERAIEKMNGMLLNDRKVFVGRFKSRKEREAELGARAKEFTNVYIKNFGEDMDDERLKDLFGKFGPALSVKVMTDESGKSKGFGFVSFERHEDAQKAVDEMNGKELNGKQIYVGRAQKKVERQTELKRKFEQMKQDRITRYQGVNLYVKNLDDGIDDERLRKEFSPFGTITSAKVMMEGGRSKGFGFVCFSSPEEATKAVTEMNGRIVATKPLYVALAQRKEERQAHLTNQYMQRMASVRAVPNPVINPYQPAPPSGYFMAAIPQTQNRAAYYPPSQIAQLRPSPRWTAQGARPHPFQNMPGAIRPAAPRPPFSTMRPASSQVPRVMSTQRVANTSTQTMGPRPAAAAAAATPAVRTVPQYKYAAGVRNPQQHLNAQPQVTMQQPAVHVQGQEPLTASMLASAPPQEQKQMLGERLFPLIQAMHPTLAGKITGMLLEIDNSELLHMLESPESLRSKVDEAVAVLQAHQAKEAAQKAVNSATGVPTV
# CSC inhib = blocks cancer stem cells. cancer stem cell-like cells viability, luminescence. inhibition, % at 7.5 µM. 300,000 tested, 1.1% active. AID 2717;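 active means mean at 75% or more and at least half the replicates too; inconclusive means mean and replicates disagree; tested in HMLE shEcad cells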;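 further: 0% = median of negative and 100% = median of positive control wells; the first replicate is given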
# Rce1 inhib = inhibitors of yeast Ras-converting enzyme; Q03530; yeast membranes, quenched prenylated peptide cleavage fluorescence; calls only; 290,000 tested, 0.27% active;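 active means fall in fluorescence gain of 50% or more versus controls, with final raw signal at or below 3038400; inconclusive means same 50% fall but final raw signal above 3038400; inactive means fall in fluorescence gain under 50%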;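 further: plate controls were neutral control wells for no effect and wells lacking membranes for full effect; tested at 10 µM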
# MT1-MMP act inh = blocks activation of human MT1-MMP; 360,000 tested, 0.061% active; HT1080 RFP-PRO-GFP cells, GFP/RFP ratio fluorescence, overnight; percent of plate control window, DMSO zero; GFP/RFP ratio change, % at 20 µM;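 active means GFP/RFP ratio change of at least 30% with cell ATP level not reduced by more than half and red fluorescence within 50% of control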; further: strong numbers were not always called active
#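 Test system: HT1080 RFP-PRO-GFP cells; Benchmarks: DMSO and RFP-L50D-GFP cell wells; Timing: cells overnight before dosing, compound overnight, 37 °C, 5% CO2; Compound: one 20 µM compound dose with 1% DMSO; Read-out: GFP/RFP fluorescence ratio.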
# eIF4H inh = inhibitors of RNA binding by human eIF4H; Q15056; eIF4H fluorescence polarization binding assay; inhibition, % at 35 µM; 290,000 tested, 0.94% active; AID 2012;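 active means 50% or more with normal probe brightness, or confirmed in later tests; inconclusive means above 50% with abnormal brightness, or retests that disagree; inactive means below 50% or failed in later tests; about a fifth of its hits are not listed in these tables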;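 further: calls also rest on retests at 20 µM and on dose response follow-up; 0% = protein and probe with vehicle and 100% = probe without protein; strong numbers were not always called active; many hits fall short of the cut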
# UUG fidelity = alters start codon recognition fidelity in yeast; S. cerevisiae UUG-firefly luciferase reporter, luminescence/redox ratio; activity score, % at 18.7 µM; AID 602363; 350,000 tested, 0.13% active;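 active means replicate mean at a twofold rise or more, about +100% in these data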;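 further: firefly luciferase made from a UUG start codon reports start codon fidelity; reporter light over untreated wells divided by growth signal over untreated wells; some hits fall short of that in this replicate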
# MT1-MMP act inh RFP = second read-out of MT1-MMP act inh, no call of its own (marks repeat the call); RFP signal change, %; measured here: RFP expression control read;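 0 = vehicle wells; hits needed this value within 50% of zero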
# The depositor's hits bear a star; i = inactive; ? = inconclusive; . = no result given; & = joins results of further samples; [ ] = another dose, or the depositor's remark.
SMILES,Env fusion inh,PABP polyA inh,CSC inhib,Rce1 inhib,MT1-MMP act inh,MT1-MMP act inh RFP,eIF4H inh,UUG fidelity
O=C(CN1C(=O)/C(=C\c2cccc(Br)c2)Oc2ccccc21)NCCCN1CCOCC1,3,-10,35,i,3,0,-4,-11
O=C(O)c1cc2nc(-c3ccccc3)cc(C(F)(F)F)n2n1,-364,9,1,i,3,0,4,-10
CCCCC(=O)Nc1nnc(SCC(=O)NC2CC2)s1,13,6,3,i,2,1,-16,.
CC1(C)OC2OC(COC(=O)c3ccc([N+](=O)[O-])cc3)C3OC(C)(C)OC3C2O1 (stereo not drawn),13,-5,3,i,5,8,-2,.
Cc1cccc(C(O)c2ncc(-c3ccc(Cl)cc3)[nH]2)c1C (stereo not drawn),17,.,.,.,2,-3,.,-20
O=C(NCCCn1ccnc1)C(=O)NCC1OCCN1S(=O)(=O)c1ccc(Br)cc1 (stereo not drawn),1,?,44,.,1,6,-6,.
Cc1ccc(/C=N/NC(=S)NC2CCCCC2)o1,-23,-5,1,i,1,-6,-2,-36
Cc1ccc(OCc2ccc(C(=O)Nc3nc4ccccc4n3C)o2)c([N+](=O)[O-])c1,.,6,-6,i,13,10,13,-22
N#Cc1cc(-c2ccccc2)nnc1Sc1ccc(Cl)cc1,.,-2,1,i,-4,1,13,-15
N#Cc1c(-n2ccnc2)cccc1-n1ccnc1,-15,-6,1,i,-2,1,0,-13
Cn1cccc1/C=C(/C#N)c1ccc(F)cc1,-6,-6,-15,i,5,1,-7,-19
CC(=O)OCCSc1c(-c2ccccc2)c2cc(Cl)ccc2[nH]c1=O,-36,7,-20,i,-9,-7,-9,5
CC(C(=O)NCc1ccco1)n1ccc2cc(S(=O)(=O)N3CCCCC3)ccc21 (stereo not drawn),-3,-5,16,i,2,-4,5,-26
CCOc1ccc2c(c1)c(N=NC(=N)N)c(O)n2C,-25,-12,7,i,-1,-6,0,0
Cc1cc(OC(C)C(=O)NC2CC(C)(C)NC(C)(C)C2)c2c(C)c(C)c(=O)oc2c1 (stereo not drawn),-1,.,.,.,2,5,.,-15
CC1CCCN(C(=O)C(C)Nc2cc(Cl)ccc2N2CCOCC2)C1 (stereo not drawn),1,7,4,i,21,18,18,.
CCn1cc(CNC(=O)CCc2nnc(CCC3CCCCC3)o2)cn1,-26,-2,-22,i,-1,4,-7,.
COc1ccc(Cl)cc1C(=O)NC1=NCCS1,-26,0,-12,i,-3,0,-3,-10
Cc1nn(-c2ccc(N3CCOCC3)nn2)c(C)c1CCC(=O)NCc1ccccc1,10,9,-13,i,1,6,-1,-4
CC1(C)N=C(SCC(=O)Nc2ccc(Cl)cc2Cl)C(c2ccccc2)=N1,-1,-14,3,i,0,-2,-7,-44
Cc1c(C(=O)Nc2ccc(Cl)cn2)oc2ccccc12,-177,6,8,i,2,3,0,-13
c1ccc(-c2cnc(CSc3nnc4ccccn34)o2)cc1,-74,-11,6,i,0,7,-10,-28
C=CCNC(=O)c1snnc1-c1ccccc1,.,10,5,i,-2,1,-7,-16
COc1ccc(CNC(=O)C2CCC(CNc3c(N4CCC(C)CC4)c(=O)c3=O)CC2)cc1 (stereo not drawn),18,3,-10,i,2,1,-1,2

# Ordered by value in MT1-MMP act inh RFP (largest number first): 3 from the list above
mol	MT1-MMP act inh RFP
N#Cc1c(-n2ccnc2)cccc1-n1ccnc1	1
Cc1ccc(/C=N/NC(=S)NC2CCCCC2)o1	-6
CC(=O)OCCSc1c(-c2ccccc2)c2cc(Cl)ccc2[nH]c1=O	-7

# (list continues)
SMILES,Env fusion inh,PABP polyA inh,CSC inhib,Rce1 inhib,MT1-MMP act inh,MT1-MMP act inh RFP,eIF4H inh,UUG fidelity
Cc1cc(Cl)c2oc(C(=O)NC3CCC(O)CC3)c(C)c2c1 (stereo not drawn),-27,6,-3,i,-4,1,-3,6
Cc1ccc(C)c(N(C(=O)c2csnn2)C(C(=O)NC2CCCCC2)c2cccnc2)c1 (stereo not drawn),-6,11,57,i,-3,-1,-6,9
CCN1CCN(C(=S)NCC2CCCO2)CC1 (stereo not drawn),7,10,-4,i,-1,2,5,-20
O=C(Nc1ccc2ccccc2c1)Nc1ccc2snnc2c1,.,3,65,i,-16,-18,3,-3
CN(C)C(=S)c1ccc(N(C)C)cc1,-8,2,-22,i,3,2,-6,.
Cc1[nH]c(SCC(=O)c2c(N)n(C)c(=O)n(C)c2=O)nc1Cc1ccccc1,-54,.,-11,.,2,0,.,-11
Nn1c(SCc2ccccn2)nncc1=O,1,-15,-1,i,0,0,-4,.
O=C(NC1CCCC1)c1cccc(S(=O)(=O)N2CCCCC2)c1,.,-4,0,i,-2,-4,5,-3
Cc1ccc(S(=O)(=O)NC2c3cccc4cccc(c34)C2Sc2ncccn2)cc1 (stereo not drawn),26,4,.,i,-5,-7,-3,.
Cc1cc(C(=O)N/N=C/c2cccc3ccccc23)c(C)o1,-1,2,10,.,5,-1,2,-3
Cc1cc(C)c(NC(=S)N(CCN2CCCCC2)Cc2ccco2)c(C)c1,3,-1,-10,i,-1,-1,2,.
N#Cc1c(-c2ccc(Cl)cc2)ccnc1N1CCOCC1,-19,14,3,i,-5,-3,-3,.

# Reformatted with bars between the fields: entries from further up
Molecule | Env fusion inh | PABP polyA inh | CSC inhib | Rce1 inhib | MT1-MMP act inh | MT1-MMP act inh RFP | eIF4H inh | UUG fidelity
O=C(NC1CCCC1)c1cccc(S(=O)(=O)N2CCCCC2)c1 | . | -4 | 0 | i | -2 | -4 | 5 | -3
Cc1ccc(S(=O)(=O)NC2c3cccc4cccc(c34)C2Sc2ncccn2)cc1 (stereo not drawn) | 26 | 4 | . | i | -5 | -7 | -3 | .

# The list goes on:
SMILES,Env fusion inh,PABP polyA inh,CSC inhib,Rce1 inhib,MT1-MMP act inh,MT1-MMP act inh RFP,eIF4H inh,UUG fidelity
Cc1cc(C)c2nc(-c3ccccn3)cc(C(=O)N3CCCC3)c2c1,12,9,12,i,-6,-1,8,-13
COC1CCCN(C(=O)c2cccc(OC3CCN(S(C)(=O)=O)CC3)c2)C1 (stereo not drawn),-8,3,5,i,0,4,-16,-4
O=C(c1cn2ccccc2n1)N1CCCC(Nc2ccc(F)c(F)c2)C1 (stereo not drawn),18,9,-5,i,1,1,-11,-7
O=C(CCc1nc(-c2ccccc2Cl)no1)NCc1ccco1,3,-6,0,i,-1,0,-4,-10
Cc1ccc(-c2nc(C(=O)NC3CCCCCC3)no2)cc1,-7,.,6,i,2,1,.,-22
NC(=O)C1CCN(C(=O)Cc2ccc([N+](=O)[O-])cc2)CC1,15,34,-24,i,2,-1,-2,.
Cc1cccc(-c2nnc(-c3ccccc3)o2)c1,.,-4,-3,.,2,8,5,-12
CCCCNC(=O)Cn1c(=O)c2c(ncn2CCC(C)C)n(Cc2ccccc2)c1=O,2,-13,12,i,1,3,-9,-2
O=C(NC1CCCC1)C(c1ccncc1)N(Cc1ccccc1)C(=O)c1ccc(-c2ccccc2)[nH]1 (stereo not drawn),-29,8,15,i,-57,-43,-2,.
OC(c1cccc(Cl)c1)c1nc(/C=C/c2ccc(C(F)(F)F)cc2)cs1 (stereo not drawn),-6,.,.,.,1,0,.,-17
N#Cc1ccc(-c2ccc(OCC(O)CN3CCCCC3)cc2)cc1 (stereo not drawn),3,-2,-3,?,5,-4,2,-14
COc1cccc(-c2cnc(C(O)c3cccc(F)c3)[nH]2)c1 (stereo not drawn),-100,.,.,.,2,2,.,-20
CC(C)C(Nc1ccc(C(F)(F)F)cc1[N+](=O)[O-])C(=O)O (stereo not drawn),4,0,-16,i,1,-2,1,.
CCCOC(=O)C1=C(C)OC23OC(N)=C(C#N)C12C(=O)c1ccccc13 (stereo not drawn),.,6,-4,i,2,7,3,-12
COC(=O)c1c(C)oc(C)c1S(=O)(=O)NCc1ccco1,3,30,-11,i,2,5,42,-2
CCCC(=O)N(Cc1cc(=O)[nH]c2ccccc12)c1cccc(C)c1,16,4,-17,i,-1,-2,3,-20
COc1ccc(OC)c(NC(=O)CN2CCC(NC(=O)c3ccccc3C)CC2)c1,5,-5,-1,i,-3,-3,17,-21
Cn1nc([N+](=O)[O-])nc1N1CCN(c2ccc(F)cc2)CC1,-58,-1,-4,i,-2,-1,-5,-4
COc1ccc(OCC(O)CN2CCC(CN3C(=O)c4cccc5cccc(c45)C3=O)CC2)cc1 (stereo not drawn),-14,.,6,i,-2,-9,.,.
COc1ccc(C(=O)NC(=S)Nc2ccc(S(N)(=O)=O)cc2)cc1,-3,4,.,i,1,-2,4,.
Cc1c(Cl)cccc1Nc1nc(N)nc(CSCCO)n1,.,3,.,i,-1,5,5,.
CCCCN(C)C1CCN(C(=S)Nc2ccc(OCC)cc2)CC1,-7,-4,.,i,2,1,9,-32
CCn1c(COc2ccccc2Cl)nnc1SCC(=O)Nc1ncccc1C,11,-2,1,i,-2,-2,0,.
Cc1ccc(NCc2n[nH]c(=S)n2Cc2ccccc2)cc1Cl,25,-1,.,i,0,-1,1,.
CC(NCC(=O)Nc1cc(S(=O)(=O)N2CCOCC2)ccc1N1CCOCC1)c1ccco1 (stereo not drawn),.,.,1,.,0,4,.,-10
COC(=O)CSc1nnc2n(C3CCCCC3)c(=O)c3c4c(sc3n12)CCCC4,.,5,31,i,17,-9,-4,-18
O=C(Nc1ccc(C(=O)NN2C(=O)c3ccccc3C2=O)cc1)c1ccccc1,14,-5,0,i,2,2,0,-16
C=CCNC(=S)NNc1nc2c(c(=O)[nH]1)C1(CCCC1)Cc1ccccc1-2,-18,5,6,i,2,3,20,.
CCCC(=O)Nc1nnc(SCC(=O)Nc2ccc3c(c2)OCO3)s1,11,1,-6,i,-3,2,-4,.
C[C@@H]1CCCCO[C@H](CN(C)S(=O)(=O)c2cn(C)cn2)[C@H](C)CN([C@@H](C)CO)C(=O)c2cc(NC(=O)c3ccccc3)ccc2O1,3[16.7 µM],.,.,.,0,2,.,4&1
O=C(COC(=O)/C=C/c1ccc(S(=O)(=O)N2CCOCC2)cc1)Nc1ccc(F)c(F)c1F,-19,.,8,.,0,4,.,-33
C=C1CCC[C@]2(C)C[C@H]3OC(=O)C(CNCCN(CC)CC)[C@H]3CC12 (stereo partly drawn),6,-1,20,i,-11,-6,0,-17
Cc1ccc2c(c1)CCCN2C(=O)NC1CCCCC1,4,-2,-3,i,3,3,-10,.
CCCS(=O)(=O)NC(=O)C1(C)CCN(C(=O)c2cncc(Br)c2)C1 (stereo not drawn),3,.,.,.,-2,6,.,-23
CCC(c1nnnn1C(C)(C)C)N1CCN(C2CCCC2)CC1 (stereo not drawn),.,-4,-1,i,1,-1,-10,8
O=c1[nH]c2ccc(NS(=O)(=O)c3ccc([N+](=O)[O-])cc3)cc2[nH]1,-3,1,3,i,4,3,-3,-15
Cc1cc(C)nc(N/N=C/c2cc(C)n(CC(F)(F)F)c2C)n1,-19,-7,-3,i,-2,-3,-6,.
Cc1nc(Nc2ccc3c(c2)OCCO3)c2oc3ccccc3c2n1,.,14,-3,i,10,-4,-13,-9
CNC(C)c1ccc(S(N)(=O)=O)cc1 (stereo not drawn),-13,-4,-10,i,2,2,0,-3
CCOC(=O)COC(=O)c1ccc(O)cc1,-14,4,-5,i,1,-5,-7,-33
COc1ccc(CCNC(=O)/C(=C/c2cccnc2)NC(=O)c2ccccc2)cc1,16,5,.,i,1,1,1,-4
CCc1nnc(NC(=O)c2cc(-c3ccccn3)nc3ccc(Br)cc23)s1,-28,12,10,i,15,-2,14,-4
Cc1nn(CC(C)C)c2sc(C(=O)NC3CC(C)(C)NC(C)(C)C3)cc12,0,7,0,i,3,7,14,-14

# Compound activity: PubChem, several laboratories
